Compound activity deposited in PubChem by National Center for Advancing Translational Sciences (NCATS).
Methyltransferases – Primary Screen for Target Class Profiling of Small Molecule Inhibitors of Methyltransferases; purified enzyme, MTase-Glo SAH luminescence; hits give low values; calls only at 40 µM; 25,000 compounds, 3.9% hits; AID 1745853, 2022; active = -50% or lower on at least one of six enzymes; inconclusive = the cases between; inactive = as a rule above -30% on all six;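 also: enzymes were COMT GAMT GNMT HNMT NNMT and PNMT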
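Each enzyme was reacted with SAM and its substrate, with compounds tested once at 40 uM; SAH formed was read by MTase-Glo luminescence.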
Calls only; i = inactive; ? = inconclusive; + = active, no number. % is scaled to controls: 0 for no effect and ±100 for the full control effect. An excerpt; count on the stated rates, not on these rows.

SMILES	Methyltransferases
Cc1cc(C)cc(NC(=O)N2Cc3ccccc3-n3cccc3C2C(C)C)c1 (stereo not given)	i
COC1CC(=O)C23C(=O)NC(CC(C)C)C2C(C)=C(C)C(OO)C3/C=C(\C)CCC(O)C1O (stereo not given)	i
Cc1ccc(NC(=O)N2Cc3ccccc3-n3cccc3C2c2ccccc2C)cc1Cl (stereo not given)	i
Cc1ccccc1C1c2cccn2-c2ccccc2CN1C(=O)Nc1ccccc1Br (stereo not given)	i
O=C(N1CCOCC1)N1CCN(c2ccc(Cl)cc2)CC1	i
CCC1c2cccn2-c2ccccc2CN1C(=O)NCc1ccccc1 (stereo not given)	i
CC(C)C1c2cccn2-c2ccccc2CN1C(=O)Nc1cccc(Br)c1 (stereo not given)	i
COc1ccc(NC(=O)N2Cc3ccccc3-n3cccc3C2c2ccc(F)cc2)c(OC)c1 (stereo not given)	i
COc1cccc(CN2CCCCCCNC(=O)[C@@H]3CCC[C@@H]32)n1	i
COC(=O)C1(C)CCC(=O)C2(C)c3c(O)cc(C(C)C)cc3C(O)C(OC(C)=O)C12 (stereo not given)	i
CCOc1ccccc1NC(=O)N1Cc2ccccc2-n2cccc2C1c1cc(F)cc(F)c1 (stereo not given)	i
C[C@@H]1O[C@H](C[N+](C)(C)C)C[C@H]1O	i
CCOC(=O)c1ncn2c1CN(C)C(=O)c1c(I)cccc1-2	i
CCOc1ccc(C2c3cccn3-c3ccccc3CN2C(=O)Nc2cccc(C)c2)cc1 (stereo not given)	i
O=C(Nc1ccccc1)N1Cc2ccccc2-n2cccc2C1c1cccc(Cl)c1 (stereo not given)	i
CC(C)(C)[C@]1(O)C[C@@H]2OC(=O)C[C@@]23C(=O)O[C@@H]2OC(=O)[C@@H](O)[C@]213	i
CCCCn1cc(C(=O)c2cccc3ccccc23)c2ccccc21	i
COc1ccc2c(c[n+](C)c3c4cc5c(cc4ccc23)OCO5)c1OC	+
COc1ccc(C2c3cccn3-c3ccccc3CN2C(=O)NCc2ccc(F)cc2)cc1 (stereo not given)	i
CCOc1ccc(NC(=O)N2Cc3ccccc3-n3cccc3C2c2ccc(SC)cc2)cc1 (stereo not given)	i
Cc1[nH]c2ccc(Cl)cc2c1CCN(C)C	+
CCc1ccc(NC(=O)N2Cc3ccccc3-n3cccc3C2CC)cc1 (stereo not given)	i
O=C(OC[C@H]1O[C@@H](Oc2ccc(O)cc2CO)[C@H](O)[C@@H](O)[C@@H]1O)c1ccccc1	i
C[C@H](Cc1ccc2c(c1)OC(C(=O)O)(C(=O)O)O2)NC[C@H](O)c1cccc(Cl)c1	i
CCc1ccccc1NC(=O)N1Cc2ccccc2-n2cccc2C1C(C)C (stereo not given)	i
Clc1ccc(N2C[C@H]3CC[C@@H](C2)N3)nn1	i
CCCc1nc(C)cc(N2CCC3(CC2)CNC(C(=O)O)C3)n1 (stereo not given)	i
COc1ccc(C2c3cccn3-c3ccccc3CN2C(=O)Nc2cc(C)cc(C)c2)cc1OC (stereo not given)	i
CCOc1ccc(C2c3cccn3-c3ccccc3CN2C(=O)NCCCOC)cc1 (stereo not given)	i
Cc1ccc(Cl)cc1NC(=O)N1Cc2ccccc2-n2cccc2C1c1cccs1 (stereo not given)	i
CC1=C2C(=O)C3[C@@H](CC=C4C[C@@H](O)CC[C@@]43C)[C@@H]2CC[C@]12O[C@@H]1C[C@H](C)CN[C@H]1[C@H]2C (stereo not given in full)	i
CC[C@@H](C)[C@@H]1NC(=O)[C@@H]2CCCN2C(=O)[C@@H](CC(O)CCl)OC(=O)CCNC(=O)[C@H](C)N(C)C(=O)[C@H](C(C)C)N(C)C1=O (stereo not given in full)	i
Cc1ccc(C)c(NC(=O)N2Cc3ccccc3-n3cccc3C2c2ccccc2C)c1 (stereo not given)	i
O=C(O)Cc1cnc[nH]1	i
COc1ccc(C2c3cccn3-c3ccccc3CN2C(=O)Nc2cc(C)ccc2C)cc1OC (stereo not given)	i
Cc1ncsc1CCCl	i
COc1ccc(C2c3cccn3-c3ccccc3CN2C(=O)Nc2cccc(SC)c2)cc1 (stereo not given)	i
O=C(Nc1ccccc1Cl)N1Cc2ccccc2-n2cccc2C1c1ccccc1 (stereo not given)	i
CC[C@H]1C2CC3[C@@H]4N(C)c5ccccc5[C@]45C[C@@H]([C@H]2[C@H]5O)N3[C@@H]1O	i
Cc1ncc(CNC(=O)N(CCCl)N=O)c(N)n1	i
COc1cccc(CNC(=O)N2Cc3ccccc3-n3cccc3C2c2ccccc2)c1 (stereo not given)	i
CCC1c2cccn2-c2ccccc2CN1C(=O)Nc1ccc(OC)cc1 (stereo not given)	i
CCCN1CCC[C@@H]2Cc3nc(N)ncc3C[C@H]21	i
CNC(=O)N1N=C(c2ccc(N)cc2)c2cc3c(cc2CC1C)OCO3 (stereo not given)	i
CCOc1ccc(C2c3cccn3-c3ccccc3CN2C(=O)Nc2ccc(OC)cc2)cc1 (stereo not given)	i
CCOc1ccc(C2c3cccn3-c3ccccc3CN2C(=O)Nc2cccc(C(=O)OC)c2)cc1 (stereo not given)	i
CCOC(=O)Cc1ccc(NC(=O)N2Cc3ccccc3-n3cccc3C2c2cccs2)cc1 (stereo not given)	i
CCOc1ccc(Oc2ccc(OCc3cc(F)ccc3F)cc2)c(N)c1	i
CCOC(=O)c1ccccc1NC(=O)N1Cc2ccccc2-n2cccc2C1c1cc(F)cc(F)c1 (stereo not given)	i
O=C(NCc1ccc(F)cc1)N1Cc2ccccc2-n2cccc2C1c1ccccc1 (stereo not given)	i
COc1cccc(NC(=O)N2Cc3ccccc3-n3cccc3C2C)c1 (stereo not given)	i
CCC1c2cccn2-c2ccccc2CN1C(=O)Nc1ccc(Br)cc1F (stereo not given)	i
COc1ccc(C2c3cccn3-c3ccccc3CN2C(=O)NCc2ccccc2)cc1OC (stereo not given)	i
Cc1ccc(C2c3cccn3-c3ccccc3CN2C(=O)Nc2cc(C)ccc2C)cc1 (stereo not given)	i
NCCCCCNC1(c2ccccc2)CCCCC1	?
Cc1cc([C@@H]2CCCN2C)on1	i
CN1CCc2cc3c(cc2C1C1OC(=O)c2c1ccc1c2OCO1)OCO3 (stereo not given)	i
Cc1c(N[C@@H](c2nnc(-c3ccc(C#N)cc3)o2)[C@H](C)O)ccc(C#N)c1Cl	i
CCC(CC)c1cc([C@H]2CN3CC[C@H]2C[C@@H]3CNC(=O)C2CCC2)nc(-c2ccncc2)n1	i
CCc1ccc(C2c3cccn3-c3ccccc3CN2C(=O)Nc2ccc(C)cc2)cc1 (stereo not given)	i

Structure: CN[C@H]1[C@H](O)[C@H](O[C@@H]2[C@@H](O)[C@H](O[C@H]3O[C@H]([C@H](C)O)[C@@H](O)[C@H](O)[C@H]3N)[C@@H](N)C[C@H]2N)OC[C@@]1(C)O
  Methyltransferases: i
Structure: CCc1ccc(C2c3cccn3-c3ccccc3CN2C(=O)NCc2ccco2)cc1 (stereo not given)
  Methyltransferases: i
Structure: C[C@H](NC(=O)Cc1cc(F)cc(F)c1)C(=O)N[C@@H]1N=C(c2ccccc2)c2ccccc2N(C)C1=O
  Methyltransferases: i
Structure: Cc1ccc(C2c3cccn3-c3ccccc3CN2C(=O)Nc2ccc(C)c(Cl)c2)cc1 (stereo not given)
  Methyltransferases: i
Structure: CSc1cccc(NC(=O)N2Cc3ccccc3-n3cccc3C2C)c1 (stereo not given)
  Methyltransferases: i
Structure: Cc1ccccc1C1c2cccn2-c2ccccc2CN1C(=O)NC1CCCC1 (stereo not given)
  Methyltransferases: i
Structure: CCOc1ccc(NC(=O)N2Cc3ccccc3-n3cccc3C2c2ccccc2)cc1 (stereo not given)
  Methyltransferases: i
Structure: Cc1cccc(NC(=O)N2Cc3ccccc3-n3cccc3C2c2ccccc2)c1 (stereo not given)
  Methyltransferases: i
Structure: Cc1sc2c(c1C)C(c1ccc(Cl)cc1)=NC(CC(=O)OC(C)(C)C)c1nnc(C)n1-2 (stereo not given)
  Methyltransferases: ?
Structure: C[C@H]1CCC/C=C/C2C[C@H](O)C[C@H]2[C@H](O)/C=C/C(=O)O1 (stereo not given in full)
  Methyltransferases: ?
Structure: NC(Cc1cc(O)c(O)cc1O)C(=O)O (stereo not given)
  Methyltransferases: +
Structure: CC(=O)NBr
  Methyltransferases: i
Structure: COc1ccc(NC(=O)N2Cc3ccccc3-n3cccc3C2c2ccccc2Cl)cc1 (stereo not given)
  Methyltransferases: i
Structure: Cc1cn(C[C@H](N)C(=O)O)c(=O)n(Cc2cc(-c3ccccc3)sc2C(=O)O)c1=O
  Methyltransferases: i
Structure: CC(=O)O[C@@H]1[C@@H](O)[C@H]2O[C@@H]3C=C(C)[C@@H](O)C[C@]3(CO)[C@]1(C)[C@]21CO1
  Methyltransferases: i
Structure: CN(C)c1ccc(C2c3cccn3-c3ccccc3CN2C(=O)Nc2ccc(F)cc2)cc1 (stereo not given)
  Methyltransferases: i
Structure: Cc1ccc(NC(=O)N2Cc3ccccc3-n3cccc3C2c2ccc(N(C)C)cc2)cc1Cl (stereo not given)
  Methyltransferases: i
Structure: CCOc1ccc(C2c3cccn3-c3ccccc3CN2C(=O)Nc2cc(C)ccc2C)cc1 (stereo not given)
  Methyltransferases: i
Structure: CCOc1ccc(C2c3cccn3-c3ccccc3CN2C(=O)Nc2ccc(F)cc2)cc1 (stereo not given)
  Methyltransferases: i
Structure: Cc1sc2c(c1C)C(c1ccc(Cl)cc1)=NC(CC(N)=O)c1nnc(C)n1-2 (stereo not given)
  Methyltransferases: ?
Structure: CC(=O)O[C@@H]1CC2C(C)(C)C(=O)C=C[C@]2(C)C2CC[C@]3(C)C(=CC(=O)O[C@H]3c3ccoc3)[C@@]21C (stereo not given in full)
  Methyltransferases: ?
Structure: Cc1cc(CN2CCC3(C2)C(=O)N(C)c2ccccc23)no1 (stereo not given)
  Methyltransferases: i
Structure: CN1CCN([C@H]2[C@@H]3OC[C@@H](O3)[C@@H](NCc3ccccn3)[C@@H]2O)CC1
  Methyltransferases: i
Structure: COC(=O)N1CCN(C(=O)Cc2ccc(Cl)c(Cl)c2)C(CN2CCCC2)C1 (stereo not given)
  Methyltransferases: ?
Structure: C[N+](C)(C)CC#CCOC(=O)Nc1cccc(Cl)c1
  Methyltransferases: i

Structure: CN1CC[C@@]2(C)c3cc(OC(=O)Nc4ccccc4)ccc3N(C)[C@@H]12
  Methyltransferases: i
Structure: COc1ccc(OC)c(NC(=O)N2Cc3ccccc3-n3cccc3C2c2cccc(Cl)c2)c1 (stereo not given)
  Methyltransferases: i
Structure: O=C(O)CCCCCCNC1c2ccccc2CCc2ccccc21
  Methyltransferases: i
Structure: O=C1Nc2ccccc2C12CCN(Cc1cccnc1)C2 (stereo not given)
  Methyltransferases: i
Structure: COCC(C(=O)OC1CC2CCC(C1)N2C)c1ccccc1 (stereo not given)
  Methyltransferases: i
Structure: Cc1ccc(NC(=O)N2Cc3ccccc3-n3cccc3C2c2ccccc2)cc1 (stereo not given)
  Methyltransferases: i
Structure: CC1=CC(=O)[C@@H](O)[C@@]2(C)C1C[C@H]1OC(=O)[C@H](O)[C@@]3(O)[C@@H](C)[C@@H](O)[C@H](O)C2[C@@]13C (stereo not given in full)
  Methyltransferases: i
Structure: CCC1c2cccn2-c2ccccc2CN1C(=O)Nc1cc(Cl)c(OC)cc1OC (stereo not given)
  Methyltransferases: i
Structure: CCC1c2cccn2-c2ccccc2CN1C(=O)Nc1cccc(Cl)c1 (stereo not given)
  Methyltransferases: i
Structure: COc1ccc(C2c3cccn3-c3ccccc3CN2C(=O)Nc2cccc(C)c2)cc1OC (stereo not given)
  Methyltransferases: i
Structure: CCC1c2cccn2-c2ccccc2CN1C(=O)Nc1ccc(C)c(Cl)c1 (stereo not given)
  Methyltransferases: i
Structure: N#CC(O[C@@H]1O[C@H](CO)[C@@H](O)[C@H](O)[C@H]1O)c1ccccc1 (stereo not given in full)
  Methyltransferases: i
Structure: CSc1ccc(C2c3cccn3-c3ccccc3CN2C(=O)Nc2ccc(C)c(Cl)c2)cc1 (stereo not given)
  Methyltransferases: i
Structure: C=C[C@H]1CN2CC[C@H]1C[C@@H]2CNC(=O)CC(C)(C)C
  Methyltransferases: i
Structure: CC1c2cccn2-c2ccccc2CN1C(=O)Nc1ccc(F)cc1 (stereo not given)
  Methyltransferases: i
Structure: COC1C=CC23c4cc5c(cc4COC2(O)CN(C)C3C1)OCO5 (stereo not given)
  Methyltransferases: i
Structure: Cc1ccc(NC(=O)N2Cc3ccccc3-n3cccc3C2c2cccc(Cl)c2)cc1 (stereo not given)
  Methyltransferases: i
